ATXN viability = Viability Counterscreen for Primary qHTS for Inhibitors of ATXN expression. S2 cells (HEK-293 line with an ATXN2-luciferase reporter) viability, CellTiter-Fluor protease fluorescence, 24 h. Potency, µM (series often up to 56.7 µM), actives largely listed as cytotoxic. hit rate 0.49% among 400,000. AID 651635, 2014; also: nearly all actives have a fitted effect of over 40% in size
HepG2 viability = qHTS for Inhibitors of TGF-b: Cytotox Counterscreen; HepG2 CAGA-GFP viability, ATP luminescence, 18 h; Potency, µM (titrated, usually from 46.1 µM), without a hit: at the top dose activity change, negative = cytotoxicity, actives largely listed as cytotoxic; hit rate 0.76% among 410,000; AID 588856, 2011; also: some results filed as inactive show a strong effect at the top dose
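HepG2 CAGA-GFP cells (1000/well, DMEM with 1% FBS) received compound, then TGF-beta at 500 pg/mL final, and were incubated 18 hours at 37 degrees C. Viability was read by CellTiter-Glo luminescence. Media-only wells were set as complete cell-killing and DMSO as no toxicity.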
TGFb SMAD3 inh = qHTS for Inhibitors of TGF-b; HepG2 CAGA-GFP TGF-b/SMAD3 reporter, GFP fluorescence, 18 h; TGF-beta stimulated, 500 pg/mL final; Potency, µM (titrated, usually from 46.1 µM), without a hit: at the top dose activity, negative = inhibition, actives largely listed as inhibitors; hit rate 1.2% among 410,000; also: % is scaled to controls: 0 for no effect and ±100 for the full control effect; nearly all actives have a fitted effect of over 65% in size
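HEPG2 CAGA-GFP cells (1000/well, DMEM with 1% FBS) were pre-incubated 2 h at 37 degrees C, given compound by pin tool, then stimulated with TGF-beta at 500 pg/mL final for 18 h before per-cell GFP fluorescence imaging.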
MCF10A rereplic = A quantitative high throughput screen for small molecules that induce DNA re-replication in MCF 10a normal breast cells; AID 624296, 2012; Potency, µM (series often up to 46.1 µM), without a hit: at the top dose activity, positive = re-replication, hits mostly activators; hit rate 2.9% among 350,000; MCF 10A DNA re-replication, Hoechst nuclear intensity, 48 h; also: % of control where 0% means no effect; nearly all actives have a fitted effect of over 50% in size
ATXN2 expr inh = Primary qHTS for Inhibitors of ATXN expression | hit rate 0.72% among 360,000 | HEK-293 ATXN2-luciferase reporter, luminescence, 24 h | Potency, µM (top dose mostly 57 µM), for the others: at the top dose activity change, negative = inhibition, usual class: inhibitors; also: % is scaled to controls: 0 for no effect and ±100 for the full control effect; nearly all actives have a fitted effect of over 55% in size
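qHTS (up to 57 uM final) was run with 24 h compound exposure of reporter cells at 37 °C. Each well was multiplexed: SteadyGlo luminescence measured ATXN2-luciferase expression after a fluorogenic Gly-Phe-AFC viability readout (25 uM final).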
Nrf2 block = Nrf2 qHTS screen for inhibitors; A549 ARE-Fluc reporter, luciferase luminescence, 18-24 h; Potency, µM (titrated, usually from 46 µM), without a hit: at the top dose activity change, negative = inhibition, actives largely listed as inhibitors; hit rate 2.1% among 360,000; also: % is scaled to controls: 0 for no effect and ±100 for the full control effect; nearly all actives have a fitted effect of over 60% in size
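Nrf2 function is reported as luminescence of an ARE-controlled luciferase in A549 cells. Compounds were tested at several concentrations, and a CellTiter-Fluor read on the same wells flagged cytotoxicity.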
A549 viability = Nrf2 qHTS screen for inhibitors: counterscreen for cytotoxicity; A549 ARE-Fluc cells, CellTiter-Fluor viability, 18-24 h; Potency, µM (top dose mostly 46 µM), for the others: at the highest dose activity change, negative = cytotoxicity, hits mostly inhibitors; hit rate 0.16% among 390,000; also: % is scaled to controls: 0 for no effect and ±100 for the full control effect
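A549 ARE-Fluc cells in 5% FBS OPTI-MEM, 5000 cells/well, rested 2 h then exposed to compounds in concentration-response for 18-24 h at 37 °C. Viability by CellTiter-Fluor fluorescence (Ex 405/Em 525) after 30 min; luciferase luminescence (BugLite, 15 min, RT) read afterwards.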
Nrf2 activator = qHTS of Nrf2 Activators. AREc32 ARE-luciferase reporter (MCF7-derived line), luminescence, 24 h. Potency, µM (highest dose often 46.1 µM), for the others: at the highest dose activation, most hits filed as activators. hit rate 0.31% among 410,000. AID 624171, 2012; also: % of control where 0% means no effect; nearly all actives have a fitted effect of over 65% in size
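Steps: seed AREc32_Fluc cells (1000/well, 5% FBS OPTI-MEM); incubate overnight at 37 deg C; add 23 nL compound; incubate 24 hr; add Steady-Glo; hold 30 min RT; read luminescence.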
Active calls of the source: *; i = inactive; ? = inconclusive; . = no result given; & = joins results of further samples; [ ] = another dose, or the depositor's remark. Calls follow the shape of the dose curve; as a rule, active = well fitted curve in the direction sought with a large enough effect; inconclusive = small, poorly fitted or top-dose-only effect, or another doubt; inactive = no such curve, though single readings can be large; an effect the other way counts as inactive or inconclusive. Potency is read from the fitted curve at half-maximal effect.

canonical_smiles	ATXN viability	HepG2 viability	TGFb SMAD3 inh	MCF10A rereplic	ATXN2 expr inh	Nrf2 block	A549 viability	Nrf2 activator
COc1ccccc1NC(=O)C(=O)N(c1cccnc1)C(C(=O)NC(C)(C)C)c1ccccc1 (stereo unspecified)	i	0.0%	-0.8%	5.6%	-6.6%	-4.4%	-1.3%	0.3%
COC(=O)c1ccc(Oc2cc(C)nc(-n3nc(C)cc3C)n2)cc1	i	-11.1%	?	2.06µM*	-33.2%	18.7%	?	0.1%
CCN(CC)CCN(C)C(c1cc2ccccc2o1)c1nnnn1C(C)(C)C (stereo unspecified)	?	.	.	.	-0.8%	.	.	-0.3%
CCOC(=O)[C@@H](C)NS(=O)(=O)N(Cc1ccccc1)[C@H](C(=O)OC)C(C)C	i	-16.8%&-33.8%	?	-0.3%	9.2%	-6.3%	-4.9%	-0.6%
O=C(Nc1nnc(CCN2CCOCC2)s1)c1ccccc1	.	-0.8%	0.0%	-0.9%	.	?	8.6%	0.4%
CCOC(=O)c1c(C)nc2ccccc2c1C	i	11.4%	8.3%	-0.2%	-19.4%	.	-0.3%	0.1%
O=C1C=C(NCc2ccccc2)CCC1	?	8.1%	7.2%	-4.0%	-4.9%	3.4%	0.2%	0.2%
c1ccc2[nH]c(NC3=NCCC3)nc2c1	i	2.5%	-9.3%	-8.9%	2.9%	5.8%	-1.8%	-0.1%
Cc1ccc(/C=C2/Sc3ccc(C(=O)N4CCN(c5ccccn5)CC4)cc3NC2=O)cc1	i	-2.4%	-23.5%	8.2µM*	3.6%	-16.5%	-0.6%	0.2%
CCCCC[C@@H]1C=C(C(=O)O)[C@H](c2ccc(Cl)c(Cl)c2)N1S(=O)(=O)c1ccc(C)cc1	?	-57.0%	?	?	2.4%	-6.9%	-1.5%	0.2%
CC(=O)CSc1nnc(C(F)(F)F)n1C	i	14.9%	0.1%	5.1%	-8.0%	11.2%	-7.0%	0.1%
Cc1cc(C)c2c(CC(=O)O)coc2c1	i	2.9%	10.4%	10.3%	-2.7%	-1.6%	-0.4%	2.1%
Cn1ccc2c(-c3ccc(C(N)=O)cc3)cc3c(c21)C1CCC3O1 (stereo unspecified)	i	-5.8%	-1.1%	.	12.2%	.	.	-0.3%
Cc1sc2ncn(CC(=O)NCCCC(=O)N3CCN(c4ccccc4)CC3)c(=O)c2c1C	i	3.4%	-1.0%	-1.2%	-6.6%	6.6%	-1.8%	-0.9%
COc1ccccc1C1CC(=O)Oc2c(C(C)C)ccc(C)c21 (stereo unspecified)	i	-27.9%	?	10.8%	-5.7%	-25.5%	2.3%	0.0%
CCCCN(CC)CCNC(=O)c1cc2c(-c3ccccc3F)nn(C)c2s1	i	-31.7%	?	25.6%	-26.7%	5.9%	-3.5%	13.6%
O=C(NC1CCCC1)C1CCN(C(=O)c2ccc(Cl)cc2Cl)CC1	i	-9.3%	-19.1%	-3.4%	-13.9%	3.7%	-5.7%	-0.6%
CCOC(=O)C1CCN(C(=O)c2ccc3c(c2)NC(=O)/C(=C/c2ccccc2)S3)CC1	i	0.0%	-8.7%	?	5.6%	?	-8.5%	-0.2%
COc1cc(C)c(NC(=S)Nc2cccc(Cl)c2)cc1OC	i	-3.6%	4.9%	-5.9%	-11.2%	-14.3%	13.4%	0.1%
CCOc1ccc(S(=O)(=O)N2CCCCC2)c(C)c1C	?	-18.1%	-26.4%	-1.8%[9.22 µM]	-20.3%	?	-5.5%	0.4%
CN1CCN(C(=O)c2ccc3c(c2)NC(=O)/C(=C/c2ccccc2)S3)CC1	i	-0.8%	-11.9%	?	-27.1%	17.6%	4.2%	6.1%
Cc1cc(C)c(C(=O)N2CCCC(CNC(=O)C3(c4ccc(Cl)cc4)CC3)C2)c(=O)[nH]1 (stereo unspecified)	?	-1.5%	-0.4%	11.6%	?	3.1%	-2.0%	-0.8%
COc1cc(CNC(=O)c2cc(-c3cc(OC)ccc3Cl)n[nH]2)cc(OC)c1	i	-31.8%	-14.4%	.	-1.1%	.	.	5.4%
CC1CCCN(C2(O)C(=O)Nc3c(C(F)(F)F)cccc32)C1 (stereo unspecified)	i	-3.7%	-15.7%	2.1%	.	1.8%	-1.1%	1.9%
COc1ccc(/C=N/n2cnc3c([nH]c4ccc(C)cc43)c2=O)cc1CN1CCCC1	.	-59.9%	?	?	.	4.9%	11.1%	0.3%
COc1ccc(S(=O)(=O)N(CCCN2CCOCC2)Cc2cccc(OC)c2OC)cc1	i	-9.8%	-1.8%	6.1%	5.4%	11.5%	-1.1%	-0.2%
O=C(Nc1ccccc1)c1cccnc1N1CCCC1	i	0.6%	-25.1%	0.8%	0.8%	7.1%	2.6%	-0.2%
CC1=C(C(=O)Nc2ccccn2)C(c2cccnc2)n2nnnc2N1 (stereo unspecified)	i	-2.4%	-0.3%	8.2µM*	11.7%	0.2%	-1.2%	-0.6%
CCOC(=O)c1c(-c2ccccc2)nnn1-c1nc(OC)nc(N2CCOCC2)n1	i	6.7%	14.4%	-1.1%	-2.4%	-8.1%	-11.8%	0.3%
O=C(O)CCNC(=O)c1ccc(NC(=O)C(c2ccccc2)c2ccccc2)cc1	i	-2.6%	-3.5%	?	.	22.3%	1.8%	-0.3%
CC1(C(=O)NCc2cccc(C(F)(F)F)c2)CCN1Cc1ccc2ccccc2c1 (stereo unspecified)	i	-67.1%	?	.	?	.	.	-0.1%
COc1ccc2c(CC(=O)NNC(=O)c3ccc(C)cc3)coc2c1	i	2.4%	13.3%	-16.7%	-4.0%	?	-4.6%	4.5%

Laid out differently: results already given.
Value order – ATXN viability | HepG2 viability | TGFb SMAD3 inh | MCF10A rereplic | ATXN2 expr inh | Nrf2 block | A549 viability | Nrf2 activator
CC1(C(=O)NCc2cccc(C(F)(F)F)c2)CCN1Cc1ccc2ccccc2c1 (stereo unspecified)
  i | -67.1% | ? | . | ? | . | . | -0.1%
COc1ccc(S(=O)(=O)N(CCCN2CCOCC2)Cc2cccc(OC)c2OC)cc1
  i | -9.8% | -1.8% | 6.1% | 5.4% | 11.5% | -1.1% | -0.2%

Next section
canonical_smiles	ATXN viability	HepG2 viability	TGFb SMAD3 inh	MCF10A rereplic	ATXN2 expr inh	Nrf2 block	A549 viability	Nrf2 activator
O=C1N(c2ccc(Cl)cc2)C(c2ccccc2)N2CCCN12 (stereo unspecified)	i	0.6%	-9.3%	7.9%	15.8%	21.5%	4.9%	-0.1%
CC(C)CCNC(=O)[C@H](Cc1ccccc1)N1Cc2ccccc2C1=O	i	-0.8%	-3.1%	19.7%	9.3%	2.6%	5.3%	1.5%
CC(C)[C@H](NC(=O)c1ccccc1)C(=O)OCC(=O)c1ccc2c(c1)NC(=O)CO2	i	10.1%	-5.8%	-1.3%	13.3%	36.2%	3.9%	0.0%
O=C(O)CN1C(=O)SC(Nc2ccc(Cl)cc2)C1=O (stereo unspecified)	i	-26.6%	?	6.8%	-3.4%	-3.2%	-13.6%	-0.1%
COc1cccc(/C=N\n2c(C)nnc2C)c1OC	i	-8.5%	-1.1%	1.3%	6.1%	15.6%	1.1%	0.2%
COc1ccc2c(c1)CCc1c(C(=O)N(C)c3ccccc3)noc1-2	i	-27.1%	0.1%	10.0%	10.4%	?	8.2%	-0.1%
CC(=O)O[C@H]1c2ccccc2-c2ccccc2[C@@H]1OC(C)=O	i	3.7%	5.4%	-1.2%	4.8%	?	-7.7%	-0.4%
CCOC(=O)/C(=N/O)C1=NC(C)(C)Cc2cc(C)c(C)cc21	i	6.7%	2.0%	2.1%	-31.0%[11.3 µM]	-11.4%	-2.8%	-0.2%
COC(=O)c1ccccc1S(=O)(=O)Nc1ccc(OC)nc1	i	-2.5%	-1.8%	-0.3%	-3.2%	15.2%	-0.9%	-0.4%
COc1ccc(S(=O)(=O)N2CCCC2)c2ccccc12	i	-2.2%	6.1%	6.6%	-12.5%	-10.2%	7.7%	-0.1%[9.22 µM]
COc1ccc(Sc2nc(-c3ccccc3)ncc2C(=O)O)cc1	i	-9.9%	-7.1%	-2.1%	-25.2%	-18.7%	0.9%	-0.8%
CC(C)C(C)(C#N)NC(=O)CSc1nnc(C(F)(F)F)n1C (stereo unspecified)	.	-2.1%	-0.6%	?	7.9%	.	9.6%	1.2%
CCCC(=O)NCCc1cc(OC)c(OC)cc1Br	i	9.3%	2.2%	6.8%	-4.6%	-15.2%	0.6%	-0.5%
C=CCN(CC=C)c1ncnc2[nH]ncc12	i	8.3%	-6.1%	-0.2%	28.9%	?	-20.6%	1.7%
COc1ccccc1C(CC(=O)Nc1ccc(Cl)cc1)c1ccc(OC(C)C)cc1 (stereo unspecified)	i	-14.5%	2.8%	-2.9%	1.5%	?	-16.2%	0.3%
CCN1CCCC1CNS(=O)(=O)c1ccc(Cl)c(C(F)(F)F)c1 (stereo unspecified)	i	3.7%	6.1%	8.4%	-14.0%	5.2%	-14.5%	-0.5%
COc1ccc(Cl)cc1NC(=O)CN(C)CC(=O)NCc1cccs1	i	-21.0%	-11.5%	9.3%	.	7.7%	-1.2%	2.3%
Cn1ccc2c(N3CCCCCC3)cc3c(c21)C1CCC3O1 (stereo unspecified)	i	-19.9%	-23.1%	.	?	.	.	-0.7%
COC(=O)c1cc2ccccc2n1S(=O)(=O)c1ccccc1	i	-8.9%	0.4%	6.1%	8.9%	-23.6%	0.7%	2.6%
COCCS(=O)(=O)N(Cc1ccccc1)[C@H](C(=O)OC)C(C)C	i	2.4%	-1.1%	0.8%	-5.6%	12.4%	-0.6%	-1.4%
C/C(=N\NC(=O)c1ccc([N+](=O)[O-])cc1)c1c(O)cc(C)oc1=O	i	13.5%	10.0%	5.3%	12.7%	1.0%	-2.2%	2.2%
Cc1no[n+]([O-])c1COc1ccc(/C=N/n2nnnc2N)cc1	i	7.6%	9.6%	?	5.5%	-1.5%	-6.0%	?
CN1CCN(S(=O)(=O)c2ccc(NC(=S)NC(=O)C3CCC3)cc2)CC1	i	-9.5%	1.6%	-8.7%	3.0%	9.9%	9.3%	-0.9%
COc1ccc(CCNC(=O)CSc2nc3[nH]ncc3c(=O)n2-c2ccc(C)c(Cl)c2)cc1OC	i	-1.9%	-14.9%	1.5%	-21.4%	-7.2%	-8.3%	0.4%

Assay outcomes from PubChem.

Some of the compounds tested (hit frequency here may not be typical).
